# From PubChem BioAssay
# Mtb growth: Mycobacterium tuberculosis H37Rv growth inhibition, cell based, confirmatory dose response (AID 1949); most inactive calls were filed without a number and no value below 0 was filed; inhibition, % at 10 µg/mL, or IC50 in µg/mL where a hit was titrated; 1.6% of 100,000 active;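 active means confirmed in a dose series; inconclusive means about 50% or more but not retested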;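 further: bacteria grown 7 days with compound before Alamar blue readout; 0% = untreated bacteria and 100% = reference antibiotic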
# * hit, by the source's call; i = inactive; ? = inconclusive.
SMILES,Mtb growth
COc1ccc(C)cc1S(=O)(=O)N1CCCCCC1,i
O=C(CSc1nnnn1-c1ccccc1)N1c2ccccc2SC2C=CC=CC21 (centres undefined),i
CC(=O)Nc1ccc(Br)cc1-c1nc2ccccc2nc1OCc1ccc(Cl)cc1,i
CCOc1ccccc1NC(=O)C(=O)NC1CCC(C(C)(C)CC)CC1 (centres undefined),i
Cc1cc(NC(=O)c2ccc(Br)o2)ccc1NC(=O)c1cc2ccccc2o1,i
COc1ccc(N2C(=O)C(Cl)=C(Nc3ccc(C)cc3C)C2=O)cc1,i
COC(=O)C1=C(C)N(Cc2ccco2)C(=O)C1,i
CCN(CC)Cc1c(C)[nH]c2c(C)c(C)ccc2c1=O,10%
O=C(Cc1ccccc1Cl)N1CCN(c2ccccn2)CC1,1%
CCC(=O)N1CCN(c2ccccc2NC(=O)c2ccc(-c3cc(Cl)ccc3Cl)o2)CC1,13%
O=C(Cn1nnc(-c2ccccc2F)n1)Nc1cccc(F)c1,2%
COc1cc(NC(=O)c2ccccc2[N+](=O)[O-])ccc1NC(=O)C(C)C,i
CC1CCN(CC(=O)Nc2ccccc2)CC1,i
CC(C)(C)NS(=O)(=O)c1ccc(NC(=O)CSc2nc3ccccc3s2)cc1,i
CC(=O)c1ccc(NC(=S)NC(NC(=O)c2ccccc2)C(Cl)(Cl)Cl)cc1 (centres undefined),2%
CCN(CC)C(=O)C(=O)Nc1cc(Cl)ccc1OC,4%
OC1CCCN(Cc2ccc(Br)cc2)C1 (centres undefined),1%
S=C(NCC1CCCO1)N1CCN(c2ccc(Cl)c(Cl)c2)CC1 (centres undefined),i
CCN1CCN(C(=O)CN(c2cccc(F)c2)S(C)(=O)=O)CC1,i
CCOC(=O)c1cnc2c(C)cccc2c1NCc1ccco1,i
O=C(Nc1cc(-c2nc3ccccc3[nH]2)ccc1Cl)c1ccco1,8%
COc1ccc2oc(=O)c(C(=O)N(Cc3ccccc3)Cc3ccccc3)cc2c1,i
Cc1ccc(NC(=O)CSc2nncc3ccccc23)cc1,i
COc1ccc(OCC(=O)NCc2ccncc2)cc1,i
COc1ccc(Cl)cc1-c1n[nH]c(=S)n1C1CCCCC1,4%
O=C(CN1C(=O)c2ccccc2S1(=O)=O)NCc1ccccc1Cl,i
Cc1cccc(NC(=O)C(C)Sc2ccc(Cl)cc2)c1C (centres undefined),i
O=C(NC(=O)C(Cl)(Cl)Cl)NC1CCCC1,i
O=c1[nH]c2nc3ccccc3n2c(O)c1Cc1ccccc1,i
CCCC(=O)N1CCN(c2ccc(NC(=O)c3cccc(Cl)c3Cl)cc2Cl)CC1,i
COc1ccc(C)cc1NC(=O)CN(c1ccc(I)cc1)S(C)(=O)=O,i
Cc1cc(OCC(=O)N2CC(C)OC(C)C2)cc(C)c1Cl (centres undefined),5%
C=CCNC(=O)c1ccc(OCC)c(OCC)c1,i
COc1ccc(C(=O)N2CCN(S(=O)(=O)c3ccc(C)cc3)CC2)cc1,i
COc1ccc(NC(=O)NC(C)c2ccc(OC)c(OC)c2)cc1OC (centres undefined),2%
CCc1cccc(C)c1NC(=O)COc1ccc(Br)cc1Cl,i
Cc1ccc(C(=O)c2cc3ccccc3o2)cc1[N+](=O)[O-],2%
COc1ccc2c(Cl)c(C(=O)Nc3c(C)nn(Cc4ccccc4C)c3C)sc2c1,i
OCC1CCCCN1C(=S)NCc1ccco1 (centres undefined),i
CCc1c(C)sc(NC(=S)Nc2ccc(C(=O)N3CCCCC3)cc2)c1C(=O)OC,i
O=C(CSc1nnc(NC(=O)c2ccc([N+](=O)[O-])cc2)s1)Nc1ccccc1,i
N#C/C(=C\C1=Cc2ccccc2OC1)S(=O)(=O)c1ccc(Br)cc1,i
c1ccc(OCc2nnc3sc(-c4ccc5c(c4)OCO5)nn23)cc1,i
Cc1ncsc1CCN1C(=O)C(=O)c2ccccc21,i
Cc1c(/C(O)=C2\C(=O)C(=O)N(Cc3cccnc3)C2c2cccs2)cnn1-c1ccccc1 (centres undefined),i
NC(CC(=O)c1ccc(Cl)cc1Cl)C(Cl)(Cl)Cl (centres undefined),0.27µg/mL*
COc1cc2c(cc1NC(=O)CC(C)(C)C)oc1ccccc12,i
O=C(CN1C(=O)c2ccc([N+](=O)[O-])cc2C1=O)Nc1ccc(I)cc1,i
CC1(C)CC(=O)C2=C(C1)N(Cc1ccco1)C(=O)C2(NC(=O)c1ccco1)C(F)(F)F (centres undefined),i
CCOC(=O)c1ccc(NC(=O)C(=O)NCc2ccncc2)cc1,i
CSc1nnc2c(n1)OC(c1cc3c(cc1Cl)OCO3)Nc1ccccc1-2 (centres undefined),13%
CCOC(=O)C(CCSc1ccc(Cl)cc1)C(=O)OCC,i
CNC(=O)c1c(NC(=O)c2ccccc2F)sc2c1CCCCC2,6%
COc1cc(C(=O)O/N=C(\N)c2ccc([N+](=O)[O-])cc2)cc(OC)c1OC,i
COc1ccccc1NC(=O)CSc1nc2sc3c(c2c(=O)n1C)CC(C)(C)OC3,i
COc1cc(OC)c(/C=C(/C#N)c2ccc([N+](=O)[O-])cc2)cc1Cl,i
Cn1c(CCNC(=O)c2cccs2)nnc1SCC(=O)Nc1cc(C(F)(F)F)ccc1Cl,i
O=C(CNCCN1CCOCC1)Nc1sc2c(c1C(=O)Nc1ccccc1)CCC2,2.1µg/mL*
COc1ccc(NC(=O)CN2CCN(S(=O)(=O)c3c(C)cc(C)cc3C)CC2)cc1,i
Cc1nc(-c2ccc(C(=O)Nc3cccc(F)c3)cc2)cs1,0%
# Later entries:
SMILES,Mtb growth
O=c1ccc2cc3c([nH]c4ccc(Br)cc43)oc-2c1O,4%
Clc1ccccc1OCCSc1nnc(-c2cccnc2)n1-c1ccccc1,i
NS(=O)(=O)c1ccc(NC(=S)NC(=O)CC23CC4CC(CC(C4)C2)C3)cc1,32%
O=C(Nc1ccc(S(=O)(=O)NCCc2ccccc2)cc1)c1ccc(Br)o1,i
COC(=O)c1ccc(C(=O)OC)c(NC(=O)COc2ccc3ccccc3c2)c1,i
CCOC(=O)c1sc2ncn(Cc3ccccc3C)c(=O)c2c1C,i
Cc1cccc(-n2c(-c3ccc(C(C)(C)C)cc3)n[nH]c2=S)c1,12%
CCOC(=O)c1nnn(Cc2ccccc2)c1N,i
FC(F)n1c(=S)n(C(F)F)c2ccccc21,i
COc1ccc(N/C(=N/c2nc(C)cc(=O)[nH]2)NC(=O)c2cccc(Cl)c2)cc1,i
c1ccc(-c2ccccc2OCCCCN2CCNCC2)cc1,i
O=C(CSc1ncn(-c2ccccc2)n1)Nc1ccc(Cl)cc1,i
C=CCNc1nnc(-c2ccc(C)cc2)s1,3%
Clc1ccc(OCc2cccs2)c(CNCc2cccnc2)c1,i
COc1ccc2nc(C)cc(Nc3ccc(O)cc3)c2c1,i
CCOc1ccc(OCc2ccc(C(=O)NC(C)C)o2)cc1,i
Brc1cccc(OCCN2CCc3ccccc3C2)c1,i
COc1ccc(C2=NN(C(=O)c3ccc(Br)o3)C(c3ccccc3OC)C2)cc1OC (centres undefined),34%
O=Cc1ccc(OCc2ccccc2[N+](=O)[O-])c(Br)c1,7%
COc1cc(C(=S)N2CCOCC2)ccc1OC(=O)c1ccccc1C,i

# Six compounds from above, sorted by molar mass, rising:
SMILES,Mtb growth
CCOC(=O)c1nnn(Cc2ccccc2)c1N,i
FC(F)n1c(=S)n(C(F)F)c2ccccc21,i
CCOC(=O)c1sc2ncn(Cc3ccccc3C)c(=O)c2c1C,i
O=C(CSc1ncn(-c2ccccc2)n1)Nc1ccc(Cl)cc1,i
Clc1ccccc1OCCSc1nnc(-c2cccnc2)n1-c1ccccc1,i
COc1ccc(C2=NN(C(=O)c3ccc(Br)o3)C(c3ccccc3OC)C2)cc1OC (centres undefined),34%

# More compounds
SMILES,Mtb growth
Cc1cc(C)nc(/N=C(/N)N2CCN(C)CC2)n1,i
COc1cc(NC(=O)COc2cc(C)ccc2C(C)C)ccc1NC(=O)C(C)C,i
CC(=O)Oc1cccc2ccc(/C=C/c3cccc(Br)c3)nc12,<0.1µg/mL*
Cn1c(O)c(N=NC(=O)COc2c(Cl)cc(Cl)cc2Cl)c2ccccc21,i
C=CCOc1ccc(Br)cc1/C=C/c1[nH]c(=O)[nH]c(=O)c1[N+](=O)[O-],?
CCNC(=O)C(C)Oc1ccc(Cl)cc1C (centres undefined),i
O=C(Nc1ccc(C(F)(F)F)cc1[N+](=O)[O-])c1sc2ccccc2c1Cl,i
COCCNCCOc1cc(C)ccc1C(C)(C)C,1%
Fc1ccccc1-c1nc(N2CCN(c3ccccc3)CC2)c2ccccc2n1,?
CCC(=O)N1CCN(c2ccc(NC(=O)c3sc4cc(Cl)ccc4c3Cl)cc2)CC1,i
O=C(CCCOc1ccccc1)Nc1ccc(S(=O)(=O)N2CCCCCC2)cc1,4%
COc1cccc(CNC(=O)C(=O)NC2CC2)c1,i
O=C(CSCc1ccccc1)NC1CC2CCC1C2 (centres undefined),i
CCC(C)c1ccc(OCC(=O)Nc2cc(C(=O)OC)cc(C(=O)OC)c2)cc1 (centres undefined),11%
COc1cc(-c2nc3sc4c(c3c(=O)[nH]2)CCC(C(C)(C)C)C4)cc(Cl)c1OS(C)(=O)=O (centres undefined),4%
COc1cc(C=O)ccc1OCc1ccc(F)cc1,i
Cc1ccc(Cl)cc1NS(=O)(=O)c1ccc(NS(=O)(=O)c2ccccc2[N+](=O)[O-])cc1,3%
O=C1OC(c2ccccc2Cl)=N/C1=C\c1ccccc1C(F)(F)F,i
Cc1cc(C)nc(/N=C(/NC(=O)Nc2ccc(Cl)cc2)Nc2ccccc2F)n1,i
COc1ccc(C)cc1NS(=O)(=O)c1cc(C)ccc1C,i

# A different layout for five compounds above.
structure	Mtb growth
COc1cc(NC(=O)COc2cc(C)ccc2C(C)C)ccc1NC(=O)C(C)C	i
O=C(Nc1ccc(C(F)(F)F)cc1[N+](=O)[O-])c1sc2ccccc2c1Cl	i
COc1cccc(CNC(=O)C(=O)NC2CC2)c1	i
COc1cc(-c2nc3sc4c(c3c(=O)[nH]2)CCC(C(C)(C)C)C4)cc(Cl)c1OS(C)(=O)=O (centres undefined)	4%
Cc1ccc(Cl)cc1NS(=O)(=O)c1ccc(NS(=O)(=O)c2ccccc2[N+](=O)[O-])cc1	3%

# Some of the entries so far, with each value named:
C=CCOc1ccc(Br)cc1/C=C/c1[nH]c(=O)[nH]c(=O)c1[N+](=O)[O-]
  Mtb growth: ?
Cc1ccc(Cl)cc1NS(=O)(=O)c1ccc(NS(=O)(=O)c2ccccc2[N+](=O)[O-])cc1
  Mtb growth: 3%
COc1cc(C=O)ccc1OCc1ccc(F)cc1
  Mtb growth: i
COc1cccc(CNC(=O)C(=O)NC2CC2)c1
  Mtb growth: i

# Continued.
SMILES,Mtb growth
O=C(Nc1cc(C(F)(F)F)ccc1N1CCOCC1)c1cc(Br)ccc1Cl,15%
COc1ccccc1-n1nnnc1SCC(=O)NCc1ccccc1,2%
Cc1cc([N+](=O)[O-])cc(C)c1NS(C)(=O)=O,i
Cc1ccc(C(=O)Nc2cccc(-c3nc4ncccc4o3)c2)c(C)c1,4%
COc1ccc(CNC(=O)CN(Cc2ccc(Br)cc2)S(=O)(=O)c2ccccc2)cc1,3%
COc1ccc(NC(=S)N2CCc3ccccc3C2)cc1OC,1%
Clc1ccc(-c2ncc3ccccn23)c(Cl)c1,i
O=C(Oc1ccc2c(c1)CCCC2)c1cccs1,?
Cc1ccc(NC(=O)Nc2ccc(Cl)cc2)nc1,i
Cc1cn(C2CC(O)C(CO)O2)c(=O)n(C)c1=O (centres undefined),i
Cc1cc(C)nc(/N=C(/N)N2N=CCC2c2ccccc2)n1 (centres undefined),i
CN1CCC(OC(=O)c2cc3cc(Br)ccc3oc2=O)CC1,i
CC(Sc1ncn[nH]1)c1nc2ccccc2c(=O)[nH]1 (centres undefined),i
Cc1cc(C(=O)N2CCOCC2)c(C)o1,1%
CCOC(=O)c1c(NC(=O)Cc2ccc(OC)c(OC)c2)sc2c1CCC2,2%
C=CCOc1c(Br)cc(CNCCc2ccc(OC)c(OC)c2)cc1OC,i
CCOc1ccc(NC(=O)c2ccc(SC)cc2OC)cc1,i
CCOC(=O)c1cnc2ccc(C(=O)OC)cc2c1Nc1cc(C)ccc1O,i
O=C(O)CSc1nc2ccccc2n1-c1ccccc1,i
COc1cc([N+](=O)[O-])ccc1NC(=O)c1cc(-c2cccc(Br)c2)nc2ccccc12,2%
Cc1ccc(S(=O)(=O)NCC(=O)Nc2ccc(C(N)=O)cc2)cc1,i
COCCn1c(SCc2ccc(Br)cc2)nnc1-c1ccccc1,i
CC(C)(C)c1ccc(C(=O)NC(=S)Nc2ccc(C(=O)O)cc2)cc1,0.64µg/mL*
CCc1ccc(Oc2coc3cc(OC(C)=O)ccc3c2=O)cc1,i
CN(c1ccccc1C(=O)Nc1ccc(Oc2ccccc2)cc1)S(C)(=O)=O,i
COc1c(S(=O)(=O)NCC2CCCO2)ccc(Cl)c1Cl (centres undefined),i
CN1C(=O)C(O)(c2c[nH]c3ccccc23)c2cc(Cl)ccc21 (centres undefined),4%
c1ccc2c(NCC3CCCO3)nc(N3CCOCC3)nc2c1 (centres undefined),0%
CCOc1ccc2nc(N3CCOCC3)nc(C)c2c1,3%
Cc1cnc(NC(=O)CSc2nc3ccccc3c(=O)[nH]2)s1,i
Cc1ccnc(NC(=O)c2sc3cc(Cl)ccc3c2Cl)c1,i
Nc1ccc(-c2nnc(SCC(=O)Nc3cccc(C(F)(F)F)c3)n2-c2ccccc2)cc1,i
COc1ccc(NC(=S)NCc2ccc(OC)c(OC)c2)c(OC)c1,i
COc1ccc(NC(=O)c2cnn3c(C(F)(F)F)cc(-c4ccco4)nc23)c(OC)c1,2%
O=C(Nc1ccccc1Cl)c1ccc(-c2ccc(Cl)cc2)o1,i
COc1ccc(OC)c(C(C)NC(=O)c2ccccc2F)c1 (centres undefined),i
Cc1ccccc1CN1CCC(N2CCOCC2)CC1,i
COc1ccc(OCC(=O)Nc2cccc(-c3nc4cc(Cl)cc(Cl)c4o3)c2)cc1,4%
COc1ccc(C(CC(=O)O)c2ccc(OC)c(OC)c2)cc1OC,i
CC(=O)Nc1ccc2nc(NC(=O)c3ccc(Br)o3)sc2c1,i
CCOC(=O)Cc1nnc(NC(=O)c2ccccc2OCC)s1,i
Cc1cc(C)cc(-n2c(-c3ccccc3F)n[nH]c2=S)c1,i

# Some of the compounds tested; count on the stated rates, not on these rows.
